miR-21 FLuc = miR-21 reporter, rising signal. HeLa miR-21 FLuc reporter, luciferase, 48 h. Potency, µM (highest dose often 38.3 µM), without a hit: at the highest dose reporter change, positive = more light. 340,000 tested, under 10 active; active = well fitted rising curve with a large enough effect; inconclusive = small, poorly fitted or top-dose-only effect; inactive = no such curve, though single readings can be large or run the other way;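 also: % of control where 0% means no effect; miR-21 action dims this reporter so a rising signal means less miR-21 action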
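HeLa cells endogenously expressing miR-21, stably carrying CMV-driven firefly luciferase with a downstream miR-21 binding site, 2000 cells/well. Titrations up to approximately 40 uM, 48 hours; luciferase luminescence read.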
GLA inh pH 4.5 = alpha-galactosidase A (human) inhibition, pH 4.5. P06280. purified enzyme, 4-MU-alpha-Gal fluorescence, pH 4.5. activity change, negative = inhibition, % at 105 µM. 230,000 tested, under 10 active; inconclusive = small, poorly fitted or top-dose-only inhibition, or a rising curve; inactive = flat fitted curve, though single readings scatter; no compound was filed as active;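 also: 0% = full activity with enzyme and -100% = basal without enzyme; dose as in the result columns while the protocol names 77 µM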
Target sequence (P06280 whole entry, looked up): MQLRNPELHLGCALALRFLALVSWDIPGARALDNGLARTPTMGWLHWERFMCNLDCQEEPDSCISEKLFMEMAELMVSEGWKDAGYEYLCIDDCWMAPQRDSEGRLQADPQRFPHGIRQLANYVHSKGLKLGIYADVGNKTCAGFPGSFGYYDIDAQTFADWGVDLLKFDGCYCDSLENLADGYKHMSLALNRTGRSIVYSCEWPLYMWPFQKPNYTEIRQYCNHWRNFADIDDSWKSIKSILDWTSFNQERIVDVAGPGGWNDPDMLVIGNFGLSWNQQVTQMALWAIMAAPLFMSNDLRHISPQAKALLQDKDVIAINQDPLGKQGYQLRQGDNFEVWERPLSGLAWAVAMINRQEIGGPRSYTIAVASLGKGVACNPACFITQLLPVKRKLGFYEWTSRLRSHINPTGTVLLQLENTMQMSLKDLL
Active calls of the source: *; u = inconclusive; x = no result given; & = joins results of further samples. The list is partial (hit frequency here may not be typical).

SMILES	miR-21 FLuc	GLA inh pH 4.5
CCC/C=C(\CCC)C(NS(=O)(=O)c1ccc(C(F)(F)F)cc1)c1ccc(-c2ccccc2)cc1 (stereo unspecified)	x	-2.4
COC(=O)C1(Cc2ccccc2)C=C2C(=C(C(C)C)C(=O)C2C)CN1 (stereo unspecified)	x	-2.6
CC(C)=CCCC1(C)C=Cc2c(O)c3c(c(CC=C(C)C)c2O1)OC12C(=CCCC1C(C)(C)O[C@@]2(C/C=C(\C)C(=O)O)C(=O)O)C3=O (stereo partly specified)	x	-4.5
CCN1CCN(C(=O)NC(C(=O)NC2C(=O)N3C(C(=O)O)=C(CSc4nnnn4C)CSC23)c2ccc(O)cc2)C(=O)C1=O (stereo unspecified)	x	0.4&1.9
CO[C@@H]1C[C@H](O[C@H]2[C@@H](C)[C@H](O[C@@H]3O[C@@H](C)C[C@@H](N(C)C)[C@@H]3OC(C)=O)[C@H](C)C[C@]3(CO3)C(=O)[C@H](C)[C@H](OC(C)=O)[C@H](C)[C@H](C)OC(=O)[C@@H]2C)O[C@H](C)[C@@H]1OC(C)=O	x	-3.5
CN1CCN(CCc2ccc(Cl)c(Cl)c2)CC1	x	-6.6
CCCCC/C=C\C\C=C/C=C/C=C/[C@@H](SCC(N)C(=O)NCC(=O)O)[C@@H](O)CCCC(=O)O (stereo partly specified)	x	-1.5
COC(=O)C1(C(=O)OC)C/C=C\Cc2ccccc2[C@@H]1C[N+](=O)[O-]	x	-2.9&2.1&0.7
O=C1CCCC1C(O)c1ccc2ccccc2c1 (stereo unspecified)	x	-10.1
CN1CCN(c2ccnc(-c3cccc(NS(C)(=O)=O)c3)n2)CC1	x	1.4
CC1(C)OC(=O)C=C[C@@]2(C)C1C[C@@H](O)[C@]1(C)C2CC[C@@]2(C)C(c3ccoc3)OC(=O)[C@H]3O[C@]321 (stereo partly specified)	x	0.4
COC(=O)C1=C(C)NC(C)=C([N+](=O)[O-])[C@H]1c1ccccc1C(F)(F)F	x	-4.9
CNC(=O)C1(C)C=CC2(CCCCC2)N1C(C)=O (stereo unspecified)	x	4.0
COC(=O)[C@@]1(Cc2ccc(F)cc2)[C@H]2c3cc(C(=O)N(C)C)n(Cc4ccc(C)c(F)c4F)c3C[C@H]2CN1C(=O)c1ccccc1	x	-3.9
CCCCC1=CC2=C(OC(C)=O)C(=O)C(C)(OC(=O)c3ccco3)C(=O)C2=CO1 (stereo unspecified)	x	-7.0
CC(C)(C)NCC(O)COc1nsnc1N1CCOCC1 (stereo unspecified)	x	5.4
Cc1cccc(CNc2ncncc2-c2cccc(C#N)c2)c1	x	-17.6
O=C1CCC=C1C(O)CCc1ccccc1 (stereo unspecified)	x	-13.7
Cc1ccc2c(c1)C(=O)C1(O)CCN(c3ccccc3)C1=N2 (stereo unspecified)	x	-6.7
CC(C)c1c(O)ccc2c1CCC1[C@@](C)(C=O)CCC[C@@]21C (stereo partly specified)	x	-7.7
CC(=O)Nc1c(I)cc(I)c(C(=O)O)c1I	x	-1.1
COC(=O)c1cc(OC)c(=O)c2c(OC)c(OC)ccc2c1	x	4.3
COc1cc2nc(N(C)CCCNC(=O)[C@@H]3CCCO3)nc(N)c2cc1OC	x	u
CC(C)CCCC(C)C1CCC2C3CC=C4CC(O)CCC4(C)C3CCC12C (stereo unspecified)	x	5.6
C[C@H](O)CON1C(=O)c2ccccc2C1=O	x	-3.7
NCCCCN	x	4.2&-2.3
COC(=O)c1ccc(C(NC(=O)OCc2ccccc2)/C(C)=C/[C@@H](C)C(=O)N(C)Cc2cccnc2)cc1 (stereo partly specified)	x	-10.4
CCCn1c(=O)c2[nH]c(-c3ccccc3)nc2n(CCC)c1=O	x	-0.8
COC(=O)[C@H]1[C@@H]2C[C@@H]3c4[nH]c5ccccc5c4CCN3C[C@H]2CC[C@H]1O	x	-6.5
CCCCCCC(=O)OC1CC(C)(C)NC(C)(C)C1	x	0.2
C#C[C@]1(O)CC[C@H]2C3CCC4=Cc5oncc5CC4(C)C3CCC21C (stereo partly specified)	x	-5.9
CNc1ncnc2c1ncn2[C@@H]1O[C@H](CO)[C@H](O)[C@H]1O	x	-7.4
CC/C=C\C/C=C\C/C=C\C/C=C\C=C\C(O)CCCC(=O)O (stereo unspecified)	x	-2.1
Cc1cc(C(=O)N[C@@H](c2ccccc2)[C@]2(C)C[C@H]2[C@@H](C)C(=O)Nc2ccc3ccccc3c2)n(C)n1	x	-2.0
CCOC(=O)C1C(C(=O)OC)=C(c2ccc(F)cc2)c2ccc(OC)cc2N1S(=O)(=O)C(F)(F)F (stereo unspecified)	x	-10.6
COc1cc2c(cc1OC)C1N(CC2)C(=O)CCC12C(=O)CCCC2=O (stereo unspecified)	x	4.0
CC(=O)S[C@H]1CC2=CC(=O)CC[C@@]2(C)[C@H]2CC[C@@]3(C)[C@H](CC[C@]34CCC(=O)O4)[C@@H]12	x	-8.5
Cc1ccccc1Nc1oc(-c2ccccc2)nc1-c1ccccc1	x	-3.6
CC(C1CCCC(=O)C1)[N+](=O)[O-] (stereo unspecified)	x	-4.9
CC(=O)Oc1ccc2c(c1C(C)C)CCC1C(C)(C)CCC[C@@]21C (stereo partly specified)	x	3.6

Rewritten with two lines to a compound: entries from further up
Second line of a record – miR-21 FLuc	GLA inh pH 4.5
CC(C1CCCC(=O)C1)[N+](=O)[O-] (stereo unspecified)
  x	-4.9
CC(=O)Oc1ccc2c(c1C(C)C)CCC1C(C)(C)CCC[C@@]21C (stereo partly specified)
  x	3.6

Arranged by count of non-hydrogen atoms (smallest number first): part of the list above
SMILES	miR-21 FLuc	GLA inh pH 4.5
NCCCCN	x	4.2&-2.3
CC(C1CCCC(=O)C1)[N+](=O)[O-] (stereo unspecified)	x	-4.9
CC(=O)Nc1c(I)cc(I)c(C(=O)O)c1I	x	-1.1
CN1CCN(CCc2ccc(Cl)c(Cl)c2)CC1	x	-6.6
CNC(=O)C1(C)C=CC2(CCCCC2)N1C(C)=O (stereo unspecified)	x	4.0
CCCCCCC(=O)OC1CC(C)(C)NC(C)(C)C1	x	0.2
CNc1ncnc2c1ncn2[C@@H]1O[C@H](CO)[C@H](O)[C@H]1O	x	-7.4
CC(C)(C)NCC(O)COc1nsnc1N1CCOCC1 (stereo unspecified)	x	5.4
COC(=O)c1cc(OC)c(=O)c2c(OC)c(OC)ccc2c1	x	4.3
CC/C=C\C/C=C\C/C=C\C/C=C\C=C\C(O)CCCC(=O)O (stereo unspecified)	x	-2.1
CC(=O)Oc1ccc2c(c1C(C)C)CCC1C(C)(C)CCC[C@@]21C (stereo partly specified)	x	3.6
C#C[C@]1(O)CC[C@H]2C3CCC4=Cc5oncc5CC4(C)C3CCC21C (stereo partly specified)	x	-5.9
COc1cc2nc(N(C)CCCNC(=O)[C@@H]3CCCO3)nc(N)c2cc1OC	x	u
CC(=O)S[C@H]1CC2=CC(=O)CC[C@@]2(C)[C@H]2CC[C@@]3(C)[C@H](CC[C@]34CCC(=O)O4)[C@@H]12	x	-8.5
CC1(C)OC(=O)C=C[C@@]2(C)C1C[C@@H](O)[C@]1(C)C2CC[C@@]2(C)C(c3ccoc3)OC(=O)[C@H]3O[C@]321 (stereo partly specified)	x	0.4
CCCCC/C=C\C\C=C/C=C/C=C/[C@@H](SCC(N)C(=O)NCC(=O)O)[C@@H](O)CCCC(=O)O (stereo partly specified)	x	-1.5
CCOC(=O)C1C(C(=O)OC)=C(c2ccc(F)cc2)c2ccc(OC)cc2N1S(=O)(=O)C(F)(F)F (stereo unspecified)	x	-10.6
Cc1cc(C(=O)N[C@@H](c2ccccc2)[C@]2(C)C[C@H]2[C@@H](C)C(=O)Nc2ccc3ccccc3c2)n(C)n1	x	-2.0
COC(=O)c1ccc(C(NC(=O)OCc2ccccc2)/C(C)=C/[C@@H](C)C(=O)N(C)Cc2cccnc2)cc1 (stereo partly specified)	x	-10.4
CCN1CCN(C(=O)NC(C(=O)NC2C(=O)N3C(C(=O)O)=C(CSc4nnnn4C)CSC23)c2ccc(O)cc2)C(=O)C1=O (stereo unspecified)	x	0.4&1.9
CO[C@@H]1C[C@H](O[C@H]2[C@@H](C)[C@H](O[C@@H]3O[C@@H](C)C[C@@H](N(C)C)[C@@H]3OC(C)=O)[C@H](C)C[C@]3(CO3)C(=O)[C@H](C)[C@H](OC(C)=O)[C@H](C)[C@H](C)OC(=O)[C@@H]2C)O[C@H](C)[C@@H]1OC(C)=O	x	-3.5

Going on with the list:
SMILES	miR-21 FLuc	GLA inh pH 4.5
CC(=O)OCC(=O)[C@@]1(O)CCC2C3C[C@H](C)C4=CC(=O)C=CC4(C)C3C(O)CC21C (stereo partly specified)	x	-6.3
COC(=O)N[C@H](C[N+](=O)[O-])c1cccc(C)c1	x	-11.3
CCCCC/C=C\C/C=C\C/C=C\C/C=C\CCCC(=O)O	x	-2.6&-1.7&-13.1
CSCC[C@H](C=O)NC(=O)[C@H](CC(C)C)NC(=O)[C@H](CC(C)C)NC(C)=O	x	3.5
NC(=O)C(=O)O	x	-1.6
COC(=O)CCCOc1ccc(Cl)cc1Cl	x	2.5
CCCCC/C=C\C/C=C\C/C=C\CCCCCCC(=O)NC(C)C(=O)O (stereo unspecified)	x	-11.1
CC[C@@]1([C@@H]2O[C@@H]([C@H]3O[C@@](O)(CO)[C@H](C)C[C@@H]3C)C[C@@H]2C)CC[C@H]([C@]2(C)CC[C@]3(C[C@H](O)[C@@H](C)[C@@H]([C@@H](C)[C@@H](OC)C(C)C(=O)O)O3)O2)O1 (stereo partly specified)	x	-0.5
CCCCC1=CC2=C(c3ccco3)C(=O)C(C)(OC(=O)c3ccc(Cl)nc3)C(=O)C2=CO1 (stereo unspecified)	x	1.6
CC[C@]1(c2ncc[nH]2)Cc2ccccc2O1	x	1.9
CC(=O)ON(C(C)=O)S(=O)(=O)c1ccc(Cl)cc1	x	-1.3
CCCCc1nc2c(c3c1C[C@H](C)OC3)CN(C(=O)NCCc1c[nH]c3ccccc13)CC2	x	0.4
NC(=NCc1ccc(Cl)c(Cl)c1)NC(=O)c1nc(Cl)c(N)nc1N	x	9.0
O=C1CC(c2ccc3c(c2)OCO3)c2cc(O)ccc2O1 (stereo unspecified)	x	-7.2
N=C(N)SCCc1ccc(OCc2ccc([N+](=O)[O-])cc2)cc1	x	-9.5
COC1C[C@@H](O[C@@H]2C(C)C(=O)OC(C)C(C)[C@H](OC(C)=O)C(C)C(=O)[C@@]3(CO3)CC(C)C(OC3OC(C)CC(N(C)C)[C@H]3OC(C)=O)C2C)OC(C)[C@@H]1OC(C)=O (stereo partly specified)	x	2.6
COc1cc([C@H]2c3cc4c(cc3[C@@H](O[C@H]3O[C@H]5CO[C@@H](C)O[C@H]5[C@@H](O)[C@@H]3O)[C@@H]3COC(=O)[C@H]23)OCO4)cc(OC)c1O	x	2.9
CCCn1c(-c2ccc(F)cc2)nc2c(NCCCCN(CC)CC)nc(C)nc21	x	4.5
CC(C)/C(O)=C1/C(=O)OC(c2ccoc2)[C@@]2(C)C(O)C(O)[C@@]34OC5(C)OC67CC(C)(C(O)[C@@]6(O)C(O)[C@@]3(O5)C12)C(CC(=O)O)[C@@]74C (stereo partly specified)	x	-24.3
CCC(CCC(C)C1CCC2C3CC=C4CC(O)CC[C@@]4(C)C3CC[C@@]12C)C(C)C (stereo partly specified)	x	4.6
O=C1NC[C@H](c2ccccc2)N1	x	-3.4
COC(=O)CCC(C)C1CCC2C3C(O)C[C@@H]4CC(O)CC[C@@]4(C)C3CC(O)[C@]12C (stereo partly specified)	x	-10.0
CC(=O)N1CC2(CC2)CC1c1ccccc1 (stereo unspecified)	x	-4.9
CS(=O)(=O)Nc1cccc(-c2nccc(-n3ccnc3)n2)c1	x	-6.6
C[C@@]12CC[C@@H]3c4ccc(O)cc4CC[C@H]3[C@H]1C[C@@H](O)[C@H]2O	x	-7.0
CCCCC[C@H](O)/C=C\[C@H]1[C@H](C/C=C\CCCC(=O)O)[C@@H](O)C[C@H]1O (tested in a mixture with another compound)	x	-6.4
CC1(OC(=O)c2cccs2)C(=O)C=C2C=C(c3ccsc3)OC=C2C1=O (stereo unspecified)	x	-2.2
COc1cc2c(cc1O)C(Cc1ccc(O)cc1)[N+](C)(C)CC2 (stereo unspecified)	x	-15.0
C[C@@]12CC[C@@H]3c4ccc(O)cc4CC[C@H]3[C@H]1CC[C@H]2O	x	1.8
COc1ccc2c(c1)O[C@@H](c1cccc(C(F)(F)F)c1)[C@H](OC(=O)N[C@H](C)C1CCCCC1)C2=O	x	-9.0
NC(N)=NCCN1CCCCCCC1	x	4.0&-0.7
CCCCNc1nc(C)nc2c1nc(-c1ccccc1)n2CCCN1CCCCC1C (stereo unspecified)	x	-5.5
Fc1ccc(C(OCCCc2cnc[nH]2)c2ccc(F)cc2)cc1	x	-5.6
O=C(Cc1ccc(Cl)cc1)c1c(O)cc(O)cc1O	x	-2.3
O=C1N[C@@H](Cc2c[nH]c3ccccc23)C(=O)N[C@H]1Cc1c[nH]c2ccccc12	x	-3.8
Oc1ccc2c(c1-c1c(O)c(Br)cc3c1CCCC3)CCCC2	x	0.6
CC/C=C\C/C=C\C/C=C\C/C=C\C/C=C\CCCCCC(=O)O	x	-21.2
N[C@H](Cn1ccc(=O)c(O)c1)C(=O)O	x	4.9&-1.7
O=C(O)[C@H]1CCCNC1	x	-3.1
CCCCNc1nc(C)nc2c1nc(-c1ccccc1)n2CC1CCN(C)CC1	x	-2.4
C[C@@]12CCC(=O)C[C@@H]1CC(=O)[C@H]1[C@H]3CCC[C@]3(C)C(=O)C[C@@H]12 (tested in a mixture with another compound)	x	2.0
O=C(c1ccc2c(c1)OCO2)N1CCCCC1	x	-1.5
COc1ccccc1CNC(=O)c1ccc2[nH]c(C)c(C)c2c1	-26.5%	x
Cc1ccccc1CSCCNC(=O)C1CCN(S(=O)(=O)Cc2ccccc2)CC1	24.9%	x
